# 2A Renilla – lowers the Renilla signal of an FMDV 2A StopGo reporter | HEK cells with a luciferase reporter of 2A StopGo recoding | Potency, µM (doses to about 57.5 µM), without a hit: top-dose signal change, negative = less light | actives 0.32% (n = 120,000) | AID 1745857; active means well fitted falling curve with a large enough effect; inconclusive means small, poorly fitted or top-dose-only effect; inactive means no such curve, though single readings can be large or run the other way; also: nearly all actives have a fitted effect of over 55% in size; overnight with compound
# StopGo FLuc – lowers the firefly signal of an FMDV 2A StopGo reporter | Potency, µM (titrated, usually from 57.5 µM), inactives show top-dose signal change, negative = less light | actives 0.23% (n = 120,000) | AID 1745856 | HEK cells with a luciferase reporter of 2A StopGo recoding; active = well fitted falling curve with a large enough effect; inconclusive = small, poorly fitted or top-dose-only effect; inactive = no such curve, though single readings can be large or run the other way; also: nearly all actives have a fitted effect of over 60% in size; overnight with compound
# * hit, by the source's call; ? = inconclusive; & = joins results of further samples; [ ] = another dose, or the depositor's remark. % is scaled to controls: 0 for no effect and ±100 for the full control effect; potency is read from the fitted curve at half-maximal effect. Rows were taken by chance; any-hit rate near 0.55%.
SMILES,2A Renilla,StopGo FLuc
O=C(NCC(O)COc1ccc(C(F)(F)F)cc1)C1CCCCC1 (stereo not given),0%,-15%
Cc1ccc(Sc2cc3ccccc3oc2=O)cc1,80%[activator],11%
O=C(Nc1ccccc1)c1cccc(CSc2cccc[n+]2[O-])c1,2%,0%
Cc1ccc(NC(=O)CSc2nc3ccccc3c3nc(CCn4cncc4C)nn23)cc1F,41%[activator],-15%
Cc1cc2nc(/C(C#N)=C/c3ccccc3)[nH]c2cc1C,132%[activator],219%[activator]
O=S(=O)(c1ccc(Oc2ccc3ccccc3c2)nc1)N1CCOCC1,-27%,?
CCCCn1c(=O)[nH]c(=O)c2c1nc(-c1cccc(OCC)c1OC)n2CCOC,-4%,-1%
COC(=O)CCNC(=O)NC(CCC(C)C)c1c(-n2cccc2)sc2c1CCN(C)C2 (stereo not given),17%,17%
Nc1c(C(=O)Nc2ccccc2C(F)(F)F)nnn1-c1ccccc1,-3%,139%[activator]
Cc1c(C(=O)N(C)C)sc2c1c(=O)n(-c1ccc(Cl)cc1)c(=O)n2Cc1ccccc1F,-5%,-17%
CCn1nc(C(=O)OCC(=O)c2cc(C)n(CCC(C)C)c2C)c2ccccc2c1=O,-10%,3%
CC(C)Cn1c(SCC(=O)NCc2ccc(Cl)cc2)nc2ncccc2c1=O,2%,1%
O=C(Nc1cccc(-c2nc3cc(Cl)ccc3o2)c1)c1ccc(F)cc1,-8%&1%,11%&1%
O=C(CSc1nc2ccccc2nc1N1CCCCC1)N1CCN(C2CCCC2)CC1,2%,-4%
COc1ccc(CC(=O)Nc2ccc3nc(Nc4cccc(Cl)c4)cc(C)c3c2)cc1,-3%,?
CN1CCN(C(=O)Cn2ccc3ccccc32)CC1,-6%,2%
C=CCNC(=O)NC(=O)CN(C)Cc1ccc(C(=O)NCC(F)(F)F)cc1,2%,6%
Fc1ccc(C(c2ccc(F)cc2)N2CCN(C/C=C/c3ccccc3)CC2)cc1,?,-19%[11.5 µM]
COC(=O)c1ccccc1NC(=O)Nc1nnc(N2CCC(C)CC2)s1,-8%,8%
Cc1cc(N)ccc1[N+](=O)[O-],4%,17%
Cc1ccc(S(=O)(=O)c2cnc(SCC(=O)Nc3cc(C)cc(C)c3)nc2N)cc1,7%,3%
CC(Oc1ccc(C#N)cc1)C(=O)c1cccc(Cl)c1 (stereo not given),-28%,-19%
Cc1cccc(OCC(=O)OCC(=O)c2ccc3c(c2)OCO3)c1,10%,22%
C=CCn1c(N(C)Cc2ccccc2)nc2c1c(=O)[nH]c(=O)n2C,4%,15%
CSc1nc2c(c(=O)[nH]c(=O)n2C)n1Cc1ccccc1Cl,3%,-2%

# Additional compounds.
SMILES,2A Renilla,StopGo FLuc
CCCN(CC1COc2ccccc2O1)C(=O)CSc1nnnn1C1CCCC1 (stereo not given),14%,-6%
CCOc1cc(C2NC(=O)c3c(sc4c3CCN(C)C4)N2)ccc1OC(=O)c1ccc(F)cc1 (stereo not given),-4%,7%
CC1=C(C(=O)Nc2cc(Cl)ccc2C)C(c2ccccc2F)n2ncnc2N1 (stereo not given),-6%,-14%
O=C(CNC(=O)NC(Cc1c[nH]c2ccccc12)C(=O)O)Nc1ccccc1 (stereo not given),-15%,-4%
CCC(C)NC(=O)c1cc(C(C)C)nc2c1cnn2C(C)C (stereo not given),3%,-7%
Cc1ccc(Nc2nc(C)c(C(=O)Nc3ccccc3)s2)cc1,3%,168%[activator]
CC(C)Cn1c(CN2CCN(c3ccccc3)CC2)nc2c1c(=O)n(C)c(=O)n2C,?,?
c1ccc(N2CCN(c3ncnc4nc[nH]c34)CC2)cc1,-22%,24%
Cc1ccc(-n2nnnc2SCc2nc3ccsc3c(=O)[nH]2)c(C)c1,1%,12%
COc1cc(C)ccc1OCCSc1nc2ccc(NC(=O)c3ccc(C)cc3)cc2s1,6%,36%[activator]
CCOC(=O)c1scc(-c2ccccc2)c1S(=O)(=O)Nc1ccc(N(C)C)cc1,224%[activator],37%[activator]
O=C(NCCN1CCCC1)c1c[nH]c2ccccc12,4%,3%
CC(=O)N1CCc2cc(S(=O)(=O)NC(CC(C)C)C(=O)NCCc3ccccc3)ccc21 (stereo not given),62%[activator],-18%
COc1ccc(Br)cc1C1CC(=O)Nc2c1c(C)nn2-c1nc(C)cc(C)n1 (stereo not given),-15%,-8%
CCOc1ccccc1C(=O)Oc1c(Sc2ccccc2)c(C)nn1C(C)(C)C,-12%,-14%
COc1cc(NC(=O)CCS(=O)(=O)c2ccc3c(c2)n(C)c(=O)c(=O)n3C)cc(OC)c1,5%,0%
COc1ccc(OC)c(C2C3=C(CC(C)(C)CC3=O)Nc3ccccc3N2C(=O)C(F)(F)F)c1 (stereo not given),69%[activator],3%
C=CCNC(=O)C1CCN(Cc2cccc(Cl)c2)CC1,7%,0%
Nc1nccnc1C(=O)NCC1(c2ccccc2)CC1,-3%,116%[activator]
CCSC1=N/C(=C\c2cc(C)ccc2C)C(=O)S1,18%,15%
CCn1cnc2c1c(=O)n(CC(=O)N(C)CC(=O)NC(C)(C)C)c(=O)n2Cc1ccccc1,-2%,2%
CCOC(=O)c1c(NC(=O)c2cc3ccccc3c(=O)o2)sc2c1CCCC2,-11%,-15%
Cc1nc2cc(NS(=O)(=O)c3cc(F)ccc3F)ccc2o1,15%,-1%
CCC(C)NC(=O)Nc1ccc2nc(N3CCOCC3)cc(C)c2c1 (stereo not given),6%,10%
Cc1ccc(C2C(c3ccccc3)=C(O)C(=O)N2Cc2ccccc2)cc1 (stereo not given),194%[activator],8%

# The listing continues.
SMILES,2A Renilla,StopGo FLuc
Cc1c(C(=O)Nc2nonc2-c2cccs2)oc2ccccc12,12%,17%
CCOc1ccc(CC(=O)Nc2nnc3n2CCS3)cc1,11%,22%
CCOC(=O)c1ccc(N2CCN(c3ccc(F)cc3)CC2)c(NC(=O)Nc2cccc(OC)c2)c1,-14%,-18%
Cc1ccc(NC(=O)Cn2cc(C#N)c3ccccc32)cc1,3%,6%
COc1ccc(OC)c(NC(=O)C(C)OC(=O)c2ccsc2)c1 (stereo not given),15%,19%
CC(C)NCC(O)c1ccc([N+](=O)[O-])cc1 (stereo not given),-7%,-23%[11.5 µM]
Cc1ccc(-c2ccc3ccccc3n2)c(C)c1,2%,144%[activator]
CCc1ccc(NC(=O)CSc2ncnc3ccccc23)cc1,-14%,47%[activator]
Cc1ccc(C2CC(=O)Nc3cc4c(cc32)OCO4)cc1Br (stereo not given),?,?
Nc1c(CC(=O)O)cccc1C(=O)c1ccc(Br)cc1,-11%,0%[11.5 µM]
CCOC(=O)c1cc(-c2ccc(OC)cc2)n(CCC(=O)NCc2ccccc2OC)c1C,-8%,-11%
CCOC(=O)C1=C(C)O[C@]23OC(N)=C(C#N)[C@]12C(=O)c1ccccc13,31%[activator],17%
O=C(c1ccc(Cl)cc1Cl)N(CCS(=O)(=O)N1CCOCC1)Cc1cccnc1,-2%,-7%
CC(=O)c1ccc(N2CCN(c3ncnc4c3c(-c3ccccc3)cn4-c3ccc(Cl)cc3)CC2)cc1,-11%,-21%
CCOc1ccc(CNC(=O)Cn2c(=O)c3cccn3c3ccc(F)cc32)cc1OC,6%,12%
CCc1c(C)sc(NC(=O)c2cc(C)oc2C)c1C#N,-1%,6%
CCCOc1cccc(C(=O)N(Cc2cc(OC)c(OC)c(OC)c2)C2CCS(=O)(=O)C2)c1 (stereo not given),-9%,-12%
CCOC(=O)C(N)CO (stereo not given),19%,0%
CC(C)C[C@@H](C(=O)NC1CCN(Cc2ccccc2)CC1)N1Cc2ccccc2C1=O,-8%,-14%
CCc1ccc(NC(=O)CSc2nccn2C2CCCC2)cc1,-15%,4%
COC(=O)c1ccc(OCCOc2ccc(F)cc2)c(OC)c1,8%,136%[activator]
CC(C)CSc1nc2c(c(=O)[nH]c(=O)n2C)n1CCc1ccccc1,-1%,-3%
COc1ccccc1CNC(=O)Cn1ncn2c(cc3sccc32)c1=O,-4%,-6%
O=C(CSCc1ccccc1Cl)N1CCN(c2ccc(Cl)cc2)CC1,11%,4%
O=C(OCCOc1ccccc1Cl)c1ccccc1Sc1ccc(C(F)(F)F)cc1[N+](=O)[O-],-6%,0%

# Some of the entries so far, with values under each structure.
# Under each structure: 2A Renilla	StopGo FLuc
Cc1c(C(=O)Nc2nonc2-c2cccs2)oc2ccccc12
  12%	17%
CCOc1ccc(CC(=O)Nc2nnc3n2CCS3)cc1
  11%	22%
CCOC(=O)c1ccc(N2CCN(c3ccc(F)cc3)CC2)c(NC(=O)Nc2cccc(OC)c2)c1
  -14%	-18%
Cc1ccc(NC(=O)Cn2cc(C#N)c3ccccc32)cc1
  3%	6%
COc1ccc(OC)c(NC(=O)C(C)OC(=O)c2ccsc2)c1 (stereo not given)
  15%	19%
CC(C)NCC(O)c1ccc([N+](=O)[O-])cc1 (stereo not given)
  -7%	-23%[11.5 µM]
Cc1ccc(-c2ccc3ccccc3n2)c(C)c1
  2%	144%[activator]
CCc1ccc(NC(=O)CSc2ncnc3ccccc23)cc1
  -14%	47%[activator]
Cc1ccc(C2CC(=O)Nc3cc4c(cc32)OCO4)cc1Br (stereo not given)
  ?	?
Nc1c(CC(=O)O)cccc1C(=O)c1ccc(Br)cc1
  -11%	0%[11.5 µM]
CCOC(=O)c1cc(-c2ccc(OC)cc2)n(CCC(=O)NCc2ccccc2OC)c1C
  -8%	-11%
CCOC(=O)C1=C(C)O[C@]23OC(N)=C(C#N)[C@]12C(=O)c1ccccc13
  31%[activator]	17%
O=C(c1ccc(Cl)cc1Cl)N(CCS(=O)(=O)N1CCOCC1)Cc1cccnc1
  -2%	-7%
CC(=O)c1ccc(N2CCN(c3ncnc4c3c(-c3ccccc3)cn4-c3ccc(Cl)cc3)CC2)cc1
  -11%	-21%
CCOc1ccc(CNC(=O)Cn2c(=O)c3cccn3c3ccc(F)cc32)cc1OC
  6%	12%
CCc1c(C)sc(NC(=O)c2cc(C)oc2C)c1C#N
  -1%	6%

# Other entries follow.
SMILES,2A Renilla,StopGo FLuc
O=C(CSc1nc(C(F)(F)F)nc2ccccc12)NN1C(=O)NC2(CCCCC2)C1=O,-18%,-2%
Cc1cccc(NC(=O)CN2C(=O)CCn3nc(-c4cccn4C)cc32)c1C,-14%,-10%
Cc1ccc(CNC(=O)c2c(O)nc3cc(C)ccn3c2=O)cc1,-11%,-13%
CCc1nc(CN2C(=O)COc3ccc(S(=O)(=O)NC4CCCCCCC4)cc32)no1,189%[activator],3%
COc1ccc(C(=O)CC2(O)C(=O)N(Cc3c(F)cccc3Cl)c3ccccc32)c(OC)c1 (stereo not given),94%[activator],0%
Cc1nc(CSCCC(=O)NCC(C)(C)N2CCOCC2)cs1,12%,24%
Cc1cccc(C)c1OCCn1c(C2CC(=O)N(c3cccc(Cl)c3)C2)nc2ccccc21 (stereo not given),17%,19%
CSc1ccc(/C=N/Nc2cccc(Cl)c2)cc1,21%,102%[activator]
O=CNNC(=S)NCc1ccc(Cl)cc1,1%,-7%
CN(C)C(=O)CN1CCCN(Cc2ncc(-c3ccccc3)o2)CC1,-6%,0%
O=[N+]([O-])c1ccc(Sc2ccc(NC(=S)Nc3ccccc3)cc2)cc1,?,?
COc1ccc(S(=O)(=O)n2nc(C)c(S(=O)(=O)N3CCCCCC3)c2C)cc1C,-3%,4%
COc1ccc(Cl)cc1NC(=O)C(=O)c1cn(CC(=O)N2CCOCC2)c2ccccc12,-12%,6%
COc1ccc(CNc2nc(-c3ccco3)nn2S(=O)(=O)c2ccc(C)cc2)cc1OC,94%[activator],0%
CCC1CN(C(=O)N2CCC(C(=O)NCCCc3ccccc3)CC2)c2ccccc2O1 (stereo not given),4%,-24%
COc1ccc(C)cc1-n1nnc(S(=O)(=O)c2ccc(C)cc2)c1C,57%[activator],-14%
C[C@]12C=CC(=O)C=C1CC[C@@H]1[C@@H]2C(=O)C[C@@]2(C)[C@H]1CC[C@]2(O)C(=O)CO,4%,16%
O=S(=O)(c1ccccc1)c1cnc2cc3c(cc2c1N1CCN(c2ccccc2)CC1)OCCO3,13%,14%
CCCN(CC(=O)Nc1ccc(-c2ccccc2)cc1)Cc1nnc(-c2ccco2)o1,18%,14%
O=C(NCc1ccc(Cl)cc1)N(Cc1ccco1)Cc1cccs1,37%[activator],4%
Cc1ncc(-c2ccc(S(=O)(=O)N3CCN(c4ccc(F)cc4)CC3)cc2)o1,18%,-3%
Cc1ccc(CCNC(=O)c2cc3c(-c4ccccc4F)nn(C)c3s2)cc1,-14%,-25%
CCOc1cc2[nH]c(=O)n(CCCC(=O)NCc3ccc(OC)cc3)c(=O)c2cc1OCC,-7%,-14%
COc1cccc(CNC(=O)c2ncoc2-c2cccs2)c1OC,-16%,0%
CCc1ccc(S(=O)(=O)N[C@@H](C)C(=O)NCc2cscn2)cc1,-2%,-7%
CCOc1ccc(C2=C(C(=O)CC)Sc3nncn3N2C(=O)CC)cc1,?,-30%
COc1cc(C(=O)N2CCC(CC(=O)NCCN3CCN(C)CC3)CC2)cc(OC)c1OC,-10%,-5%
Cc1ccc(-n2ncc(C(=O)NCc3ccccn3)c2C2CCN(C(=O)OC(C)(C)C)CC2)c(C)c1,21%,-18%
CCn1c(=O)n(CC(=O)NCC(=O)Nc2cccc(C)c2C)c2ccccc21,8%,10%
CCc1ccc(-c2csc(NC3OC(=O)c4c3ccc(OC)c4OC)n2)cc1 (stereo not given),-3%,193%[activator]
